# TRPV1 PAM: enhances activation of the human vanilloid receptor TRPV1; Q8NER1; TRPV1-expressing cells, Fluo-8 calcium influx, capsaicin EC20 potentiation; host cell line not named in the record; control for the full effect not named in the record; potentiation, % at 8.33 µM; 320,000 tested, 0.02% active; active means potentiation above 80%; inconclusive means 30% to 80%; inactive means below 30%; note: 0% is about no effect
# Target sequence (Q8NER1 whole entry, looked up): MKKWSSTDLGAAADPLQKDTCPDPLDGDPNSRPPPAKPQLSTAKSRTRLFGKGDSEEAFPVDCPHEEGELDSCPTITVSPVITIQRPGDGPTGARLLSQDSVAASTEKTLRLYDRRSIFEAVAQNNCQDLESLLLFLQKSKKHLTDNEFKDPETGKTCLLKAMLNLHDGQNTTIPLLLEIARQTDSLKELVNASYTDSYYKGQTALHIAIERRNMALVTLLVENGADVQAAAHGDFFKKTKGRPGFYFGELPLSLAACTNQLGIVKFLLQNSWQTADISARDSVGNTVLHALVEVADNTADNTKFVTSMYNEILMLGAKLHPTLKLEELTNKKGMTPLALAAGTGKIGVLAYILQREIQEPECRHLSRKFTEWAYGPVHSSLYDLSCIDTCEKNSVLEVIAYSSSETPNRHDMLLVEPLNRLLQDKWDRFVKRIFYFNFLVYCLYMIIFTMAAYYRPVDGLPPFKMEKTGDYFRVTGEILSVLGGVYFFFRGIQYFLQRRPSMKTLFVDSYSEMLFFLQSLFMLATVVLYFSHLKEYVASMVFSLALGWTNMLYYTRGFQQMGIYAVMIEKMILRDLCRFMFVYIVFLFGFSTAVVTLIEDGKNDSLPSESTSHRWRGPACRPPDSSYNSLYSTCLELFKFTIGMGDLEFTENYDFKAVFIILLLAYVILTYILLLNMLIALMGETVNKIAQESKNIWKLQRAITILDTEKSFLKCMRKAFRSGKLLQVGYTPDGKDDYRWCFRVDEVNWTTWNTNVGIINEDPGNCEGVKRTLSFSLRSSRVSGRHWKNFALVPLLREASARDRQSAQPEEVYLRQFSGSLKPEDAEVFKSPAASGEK
#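 TRPV1-expressing cells were cultured overnight at 35.5C and loaded with Fluo-8 calcium dye for 40 to 90 min at room temperature. After a 10 s baseline, compound was added and calcium influx was read kinetically for 3 min (ex 480/em 520 nm).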
# PINK1 expr mod: modulators of PINK1 expression | Potency, µM (series often up to 76.6 µM), for the others: at the top dose activation (PINK1 increase), hits mostly activators | PINK1 immunofluorescence, high-content cytometry, 24 h | 410,000 tested, 0.2% active; active = well fitted activation curve with a large enough effect; inconclusive = small, poorly fitted or top-dose-only effect; inactive = flat fitted curve, though single readings scatter; cell line not stated here;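 note: potency is the fitted concentration of half-maximal effect; % of control where 0% means no effect; nearly all actives have a fitted effect of over 65% in size; a mitochondrial uncoupler was the plate control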
#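 Stable cell line, 250 cells/well, 12 h attachment; compounds pinned at 5 concentrations, 24 h; CCCP control. Fixed with nuclear dye, primary antibodies 12 h at 10 degrees C, secondary plus cell stain; laser-scanning cytometer read.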
# TRPML1 blocker: inhibitors of human TRPML1 channel; TRPML1-inducible cells, Ca2+ dye fluorescence, FDSS; hits give low values; inhibition of EC80 agonist-evoked calcium signal; activity change, negative = inhibition, % (test concentration not listed); 390,000 tested, 0.02% active; AID 624415; in the data active means activity change below about -50%; inconclusive means about -30% to -50%; inactive means above about -30%;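 note: stimulus is agonist 54-4 at its EC80 concentration; % is set by controls: 0 for no effect and ±100 for the full control effect; compound concentration not given in the record; the text of the record puts the active cut at -80%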
#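 Calcium fluorescence in TRPML1-DL cells induced overnight with Tet: a 110 s read after compound pin addition, then a 110 s antagonist read after challenge with 54-4 at 4 uM final (EC80).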
# Menin MLL FP FL: menin-MLL binding inhibition, fluorescein peptide; Fluorescence polarization, fluorescein-MLL peptide displacement from menin; 290,000 tested, under 10 active; FP activity change, % at 61.4 µM; AID 1766; inconclusive = falling polarisation curve, or a change in total fluorescence; inactive = total fluorescence flat and polarisation flat or rising; no compound was filed as active; the % refers to the polarisation; negative = inhibition;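 note: % of control where 0% means no effect; inhibitors lower the polarisation; unlabelled MLL peptide was the positive control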
# ClpP mod: qHTS Assay for Activators of ClpP. purified B. subtilis ClpP, FRET peptide cleavage, 20 min. Potency, µM (series often up to 57.5 µM), for inactives: at the highest dose activity change, negative = active. 340,000 tested, 1.9% active; active = well fitted falling curve with a large enough effect; inconclusive = small, poorly fitted or top-dose-only effect; inactive = no such curve, though single readings can be large or run the other way; note: potency is the fitted concentration of half-maximal effect; the source files actives as falling curves though it sought activators and does not explain the sign; nearly all actives have a fitted effect of over 65% in size; many hits overshoot -100%
# Target sequence (P80244 whole entry, looked up): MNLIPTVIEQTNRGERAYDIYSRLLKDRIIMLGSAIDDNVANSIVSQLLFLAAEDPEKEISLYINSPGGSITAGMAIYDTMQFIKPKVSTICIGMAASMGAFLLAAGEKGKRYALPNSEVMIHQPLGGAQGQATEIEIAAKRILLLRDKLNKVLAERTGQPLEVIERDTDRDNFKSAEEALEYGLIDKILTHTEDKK
#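 Purified B. subtilis ClpP, 10 microg/mL final in Tris/HCl pH8 with KCl, BSA, glycerol and Tween-20, cleaved an Abz/nitrotyrosine-quenched decapeptide. Fluorescence (ex 320, em 430) was read at 0 and 20 min at room temperature. Delta was normalized to 5.8 microM ADEP and DMSO/no-enzyme controls.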
# TRPML1 ag: activates the human TRPML1 channel. TRPML1-expressing cells, Ca2+ dye fluorescence, FDSS; host cell line not named in the record; reference of the full effect not given here. activation, % (concentration not given with the values). 410,000 tested, 0.12% active. AID 624414; in the data active = activation above about 50%; inconclusive = about 30% to 50%; inactive = below about 30%; note: 0% is about no effect; the text of the record puts the active cut at 80%
#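 Calcium fluorescence on an FDSS kinetic reader gave the read-out. Tet-induced TRPML1-DL cells were plated overnight, dye-loaded (Ca8 with quencher, 45-90 min, room temperature, dark), then read 110 s after compound addition, and again 110 s after 4uM final 54-4 (EC80).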
# Sfp inh: Sfp phosphopantetheinyl transferase inhibition; Biochemical Sfp PPTase activity, qHTS; Q9F4F7; Potency, µM, without a hit: max response, negative = inhibition, most hits filed as inhibitors; 310,000 tested, 3.5% active; active = well fitted inhibition curve with a large enough effect; inconclusive = small, poorly fitted or top-dose-only effect, or another doubt; inactive = no such curve, though single readings can be large or run the other way;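 note: the enzyme is Sfp with the accession as filed and its product quenches rhodamine fluorescence; potency is the fitted concentration of half-maximal effect; 0% = enzyme reaction without inhibitor and -100% = no enzyme wells; top concentration of the series not given in the record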
#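 Fluorescence-quenching assay with 15 nM Sfp, 5 uM rhodamine-CoA and 12.5 uM BHQ-2-labelled ybbR peptide in pH 7.6 Hepes/MgCl2 buffer. Enzyme was pre-incubated with compound for 15 min at room temperature. Rate was taken from the 30-min fluorescence change (525/598 nm).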
# An asterisk follows results filed as active; ? = inconclusive; nt = not tested or not shown; [ ] = remark or other dose. Random draw from the library; 4.4% or so of the library scored in one or more.
SMILES,TRPV1 PAM,PINK1 expr mod,TRPML1 blocker,Menin MLL FP FL,ClpP mod,TRPML1 ag,Sfp inh
O=C1C2C3C=CC(C3)C2C(=O)N1c1cccc(-c2nc3ccccc3o2)c1 (configuration not stated),-2.3,12.6%,5.5,3.0,?,-0.7,12.2%
Cc1nn(Cc2ccccc2Cl)c(C)c1NC(=O)CCCn1nc([N+](=O)[O-])c(Cl)c1C,-10.9,5.9%,-7.2,0.4,-1.1%,-0.5,-0.4%
COC(=O)CCC(=O)Nc1cccc2c(NC(=O)CCC(=O)OC)cccc12,7.5,0.3%,-10.5,-2.0,4.5%,-0.4,15.1%
O=C(NCc1ccccc1)c1ccc(CSc2nc3cccnc3n2Cc2ccccc2)cc1,nt,1.9%,19.6,nt,4.4%,3.9,nt
O=C(Nc1ccc(Cl)c(Cl)c1)C1CCCCC1,-11.9,?,-5.1,nt,1.4%,-0.7,nt
CCCCOc1ccc(C(=O)NCCOc2cccc(OC)c2)cc1,-9.6,0.6%,8.1,1.3,1.5%,2.2,4.6%
CC(C)(C)NC(=O)C(c1ccc(F)cc1)N(Cc1ccco1)C(=O)CCC(=O)Nc1ccccn1 (configuration not stated),-23.7,1.6%,-2.7,0.4,nt,0.2,13.4%
O=C(NCCc1ccccc1)C1CCN(C(=O)c2ccc(F)cc2)CC1,-7.4,0.7%,-16.2,-1.4,1.2%,-0.1,-4.2%
CCOc1ccc(-c2nc(C#N)c(NCc3ccco3)o2)cc1,-9.2,1.6%,-5.4,-2.9,nt,-0.1,-9.0%
O=C(COC(=O)c1ccc(Cl)cc1O)NC(=O)C1CCCCC1,-5.3,0.7%,-12.5,-1.8,nt,0.0,21.0%
O=C(NCCCn1ccnc1)c1cc(-c2ccc(Cl)cc2)nc2ccccc12,2.7,7.7%,8.7,0.3,?,-0.5,3.3%
O=C(CCNS(=O)(=O)c1ccc(OC(F)(F)F)cc1)N1CCN(S(=O)(=O)c2cccc(F)c2)CC1,-3.4,-0.4%,3.0,nt,-1.8%,-0.1,nt
Cc1ccc(C(=O)N/N=C/c2ccc(-c3cccc(Cl)c3)o2)cn1,nt,14.2%,26.9,5.2,-10.5%,0.2,17.0%
CCCCn1cc(S(=O)(=O)c2ccccc2)c(=O)c2cc(F)c(N3CCC(C)CC3)cc21,nt,2.5%,-13.9,nt,-8.5%,1.2,nt
COc1ccccc1CNC(=O)c1cc2ccc3ccc(C)[nH]c3c2n1,nt,-4.2%,-10.3,nt,-1.8%,2.1,nt
COCCN1C(=O)C(=O)/C(=C(/O)c2ccc(S(=O)(=O)N3CCOCC3)cc2)C1c1ccc(OC)c(OC)c1 (configuration not stated),5.7,2.2%,9.0,0.3,1.1%,-0.1,-1.2%
Cc1ccccc1CNc1nc(N)n(-c2ccccc2)n1,nt,-0.3%,4.3,0.1,-1.5%,-0.4,4.4%
O=C(O)/C(=C/c1ccco1)NC(=O)c1ccc(Br)o1,25.0,-0.9%,10.6,-0.4,-0.7%,0.1,-13.5%
C[C@@]12CCC=C[C@H]1[C@H](c1ccccc1Br)N(Cc1ccccc1)C2=O,nt,0.7%,12.8,?,1.1%,-0.7,-15.7%
O=C(Nc1ccc(Cl)cc1)c1ccc2oc(=O)n(Cc3ccccc3)c2c1,nt,3.8%,-14.3,nt,-15.5%,0.6,nt
CCOC(=O)CC(NS(=O)(=O)c1ccc(OC)c(C)c1)c1cccc([N+](=O)[O-])c1 (configuration not stated),13.9,0.6%,0.3,1.0,-3.1%,2.3,3.1%
CCOc1cc(/C=N\NC(=O)c2ccc(NC(=O)C(C)(C)C)cc2)ccc1OC(=O)c1ccc(C)cc1,2.1,2.2%,-0.4,-0.3,-15.1%,-0.1,0.4%
C/C(=N\N=C1/NC(=O)C(C)S1)c1ccc([N+](=O)[O-])cc1 (configuration not stated),3.4,-0.2%,-7.3,2.6,-1.5%,1.6,3.9%
Cc1ccc(S(=O)(=O)N2CCCC2C(=O)NC2CCCCC2)cc1 (configuration not stated),-0.8,-0.7%,-5.0,0.0,-0.6%,0.4,12.7%
CN1CCN(c2oc(-c3ccc(OCc4ccc(Cl)cc4)cc3)nc2C#N)CC1,nt,-1.1%,nt,nt,-22.2%,-0.5,nt
# (continued)
SMILES,TRPV1 PAM,PINK1 expr mod,TRPML1 blocker,Menin MLL FP FL,ClpP mod,TRPML1 ag,Sfp inh
COCCn1c(C)cc(O)c(C(c2ccc(C)cc2)N2CCCCC2)c1=O (configuration not stated),nt,-0.1%,0.0,nt,0.8%,0.0,nt
CCOC(=O)N1CCN(C(=O)c2cc3cc(Br)ccc3oc2=O)CC1,-8.3,2.0%,4.5,0.0,-3.5%,-0.1,10.0%
Cc1cc(C)n(S(=O)(=O)c2cc(C)c(C)cc2C)n1,-11.6,1.8%,7.1,3.8,2.0%,1.0,0.2%
O=c1c2oc3ccccc3c2n(Cc2ccccc2F)c(=O)n1Cc1ccccc1,nt,-1.1%,-7.1,nt,-13.9%,1.3,nt
CCNNC(=O)C(O)(c1cccc(C)c1)c1cccc(C)c1,1.5,-1.5%,25.0,3.2,-1.0%,-0.5,8.3%
CCn1ncc([N+](=O)[O-])c1C(=O)Nc1c(C)nn(Cc2ccc(F)cc2)c1C,-6.2,0.2%,6.0,-1.5,-0.1%,-0.8,15.1%
Oc1ccc(C[C@@H]2CNCCN2CCC23CC4CC(CC(C4)C2)C3)cc1,-5.9,-1.9%,-2.4,nt,0.3%,0.8,nt
CCCOc1ccc(F)cc1-c1cc(C(=O)NCc2cccc(C(F)(F)F)c2)[nH]n1,nt,3.2%,nt,nt,-19.5%,0.2,nt
CN(C(=O)C1CCC(=O)N(Cc2ccccc2F)C1)C1CCOCC1 (configuration not stated),-5.8,0.9%,-6.6,0.3,1.4%,5.3,13.7%
Cc1ccc2nc(C3CCCCC3)c(Cc3ccsc3)n2c1,nt,25.4%,nt,nt,5.0%,-0.1,nt
COc1cccc(/C=C/C(=O)OCC(=O)N2CCCc3ccccc32)c1,?,1.1%,-6.0,nt,?,0.0,nt
CC(C)CC(=O)NC(=S)Nc1nc(-c2ccccc2)cs1,6.4,8.2%,-4.8,2.6,-1.0%,1.8,17.8%
CCOc1ccc(N=Nc2c(=O)[nH]n3c(=O)c4c([nH]c23)CCCC4)cc1,2.8,5.9%,5.3,1.6,-0.8%,2.1,-23.3%
Nc1cc(Cl)ccc1N1CCOCC1,-1.2,0.4%,29.2,1.8,-3.4%,1.9,2.3%
O=C(Cc1cccs1)N1CCN=C1SCc1ccc(F)cc1,-12.1,-1.0%,10.6,21.1,nt,0.2,-4.1%
Cc1cc(NC(=O)CSc2c[nH]c3ccccc23)no1,22.0,-0.4%,-9.9,nt,0.1%,5.6,7.8%
CCS(=O)(=O)N1CCc2cc(C(=O)N3CCN(c4ccccc4OC)CC3)ccc21,nt,6.4%,1.4,nt,0.2%,1.5,nt
Cc1ccc(-n2c(C)nnc2SCC(=O)N2CCc3ccccc3C2)cc1,-17.8,-1.4%,-20.1,3.6,0.6%,-0.7,1.0%
CCN(CC)C1CCN(C(=O)c2cc(COc3ccc(F)cc3Cl)on2)C1 (configuration not stated),5.7,-0.5%,5.7,-3.8,2.5%,0.0,14.9%
COc1ccc(-c2nn(CC(=O)NC3CCCC3)c3c2cnc2ccc(F)cc23)cc1,nt,0.3%,9.4,nt,-20.8%,0.2,nt
O=C(NCc1ccccc1)C(=O)Nc1ccc2nc3n(c(=O)c2c1)CCCCC3,nt,1.5%,22.0,nt,4.4%,2.7,nt
CCOC(=O)C1=C(C)N=C2SC(C)C(=O)N2C1/C=C/c1ccccc1OC (configuration not stated),-18.5,-0.2%,29.2,7.2,-0.6%,0.2,5.8%
CCOC(=O)c1nn(-c2ccccc2Cl)c(=O)cc1OCC(=O)Nc1cccc(OC)c1,4.0,4.2%,-8.1,nt,-2.0%,0.7,nt
CCOc1ccc(NC(=O)CSc2nc3ccccc3c(=O)n2CCCC(=O)NCC2CCCO2)cc1 (configuration not stated),-2.2,2.7%,-3.2,0.4,-3.4%,-0.5,14.6%
COc1ccc(NC(=O)C2(C)CCN2Cc2ccc3ccccc3c2)cc1OC (configuration not stated),nt,?,nt,nt,1.5%,-0.5,nt
# New compounds follow.
SMILES,TRPV1 PAM,PINK1 expr mod,TRPML1 blocker,Menin MLL FP FL,ClpP mod,TRPML1 ag,Sfp inh
Cc1cccc(NC(=O)c2ccccc2NC(=O)c2ccco2)c1,-3.2,0.5%,5.8,nt,37.8%,0.6,?
Cc1cccc(-n2cnc3cc(C(=O)N4CCc5ccccc54)ccc32)c1,28.2,10.0%,4.2,-1.2,-0.7%,0.4,-7.4%
CC(C)(C)c1ccc(C(=O)NCc2nnc(SCC(=O)NCC3CCCO3)o2)cc1 (configuration not stated),7.4,1.6%,12.8,-7.0,-2.5%,-0.1,4.0%
Cc1nn(-c2ccccc2)c2c1C(=O)N(Cc1ccccc1)C(=O)C(C)(C)C2,1.5,1.5%,24.4,-0.6,-2.6%,0.8,-13.1%
CCC1=Nc2cc(C(=O)N3CCCCC3)ccc2Sc2ccc(C)cc21,-6.6,-1.9%,-19.6,6.3,-0.5%,-0.9,-4.2%
O=C(CC(=O)c1ccccc1)Nc1cc(C(F)(F)F)ccc1Cl,16.4,?,8.8,nt,3.6%,0.2,38.0%[activator]
Nc1cc(=O)[nH]n1C1CCCC1,5.4,5.7%,-18.8,-0.7,nt,1.1,8.0%
Cn1ccsc1=NC(=O)c1ccc(S(=O)(=O)C(F)F)cc1,4.3,10.9%,-7.4,nt,nt,-0.1,7.7%
Cc1n[nH]c(C)c1S(=O)(=O)N1CCCCCC1,-5.7,0.6%,-4.2,1.0,1.9%,-0.3,18.9%
Cc1cc(C)c(S(=O)(=O)NC2CC(C)(C)NC(C)(C)C2)cc1Br,-2.0,0.2%,5.2,-2.1,1.2%,0.3,10.9%
CC(C)CC(C(=O)OCC(=O)c1c(N)n(C)c(=O)n(C)c1=O)N1C(=O)c2ccccc2C1=O (configuration not stated),-2.5,1.2%,22.6,13.9,-0.3%,0.1,-17.0%
O=C(Nc1n[nH]c(C(F)(F)F)n1)C1CC1,2.1,-0.2%,-1.1,-3.7,nt,0.1,?
CCOC(=O)c1cc(S(=O)(=O)NCCc2ccccc2)cn1C,6.4,0.9%,2.7,nt,nt,0.8,2.1%

# Source: PubChem
